# Screening results from PubChem.
# SARS PLpro yeast: qHTS of Yeast-based Assay for SARS-CoV PLP. S. cerevisiae expressing SARS-CoV PLpro, growth rescue; control for the full effect not named in the record. Potency, µM (top dose mostly 32.9 µM), without a hit: top-dose activity, positive = growth rescue. hit rate 0.19% among 330,000. AID 485353, 2010; active means well fitted rising curve with a large enough effect; inconclusive means small, poorly fitted or top-dose-only effect; inactive means no such curve, though single readings can be large or run the other way; note: 0% is about no effect; nearly all actives have a fitted effect of over 55% in size; growth read by luminescence after 48 h
# NS1 inh: qHTS Assay for Inhibitors of Influenza NS1 Protein Function; S. cerevisiae slowed by influenza A NS1, growth recovery by OD600; Potency, µM (highest dose often 46.1 µM), without a hit: at the top dose activity, positive = more growth; hit rate 0.4% among 270,000; AID 2326, 2010; active means well fitted rising curve with a large enough effect; inconclusive means small, poorly fitted or top-dose-only effect; inactive means no such curve, though single readings can be large or run the other way; note: nearly all actives have a fitted effect of over 50% in size
#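 Growth recovery, yeast-based: influenza A NS1 expressed in S. cerevisiae causes slow growth, and suppressors are detected by OD600. The parent strain without NS1 is used as positive control.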
# StopGo reporter: High Throughput Screening for Foot and Mouth Disease Virus Antivirals; AID 1159524, 2015; hit rate 1.2% among 410,000; human cells with a luciferase reporter of 2A StopGo recoding; control for the full effect not named in the record; Potency, µM (doses to about 57.9 µM), for inactives: at the top dose signal change, negative = less light; active = well fitted falling curve with a large enough effect; inconclusive = small, poorly fitted or top-dose-only effect; inactive = no such curve, though single readings can be large or run the other way; tested in HEK293T cells; note: % is set by controls: 0 for no effect and ±100 for the full control effect; nearly all actives have a fitted effect of over 45% in size; luciferase light after 4 h
# MARV entry inh: qHTS for inhibitors of binding or entry into cells for Marburg Virus. Marburg virus pseudotyped entry inhibition, cell reporter; control for the full effect not named in the record; about a third of the inactives were read at about 46 µM. Potency, µM (series often up to 37.8 µM), for inactives: top-dose activity change, negative = inhibition, actives largely listed as inhibitors. hit rate 1.8% among 300,000; active = well fitted inhibition curve with a large enough effect; inconclusive = small, poorly fitted or top-dose-only effect, or effect the other way; inactive = flat fitted curve, though single readings scatter; tested in HEK293 cells; about a fifth of its hits are not listed in these tables; note: % is set by controls: 0 for no effect and ±100 for the full control effect; luciferase read-out
# Cruzain inh Det: qHTS Assay for Promiscuous and Specific Inhibitors of Cruzain (with detergent). Potency, µM, inactives show max response, negative = inhibition, usual class: inhibitors. AID 1478, 2009. Cruzipain (Trypanosoma cruzi), P25779. hit rate 0.43% among 200,000. purified cruzain, Z-FR-AMC fluorescence, 0.01% Triton;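 note: plate controls were neutral wells for no effect and buffer without enzyme for full effect; nearly all actives have a fitted effect of over 40% in size; top concentration of the series not given in the record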
# Target sequence (P25779 123-467 limits assumed): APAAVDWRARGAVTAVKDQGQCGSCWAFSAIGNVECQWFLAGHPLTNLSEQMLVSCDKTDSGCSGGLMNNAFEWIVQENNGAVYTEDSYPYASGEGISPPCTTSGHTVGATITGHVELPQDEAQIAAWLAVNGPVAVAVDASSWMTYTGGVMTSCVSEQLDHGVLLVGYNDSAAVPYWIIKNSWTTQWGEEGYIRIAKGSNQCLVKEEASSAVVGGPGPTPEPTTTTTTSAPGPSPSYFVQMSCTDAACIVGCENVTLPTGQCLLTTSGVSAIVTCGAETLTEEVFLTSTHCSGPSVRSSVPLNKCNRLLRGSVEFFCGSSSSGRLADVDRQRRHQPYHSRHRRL
#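 Purified cruzain (1.5 nM final) was preincubated with compounds for 15 min at room temperature in 100 mM sodium acetate pH 5.5, 5 mM DTT, 0.01% Triton X-100. Reaction started with 2 uM Z-FR-AMC; AMC fluorescence change over 60 s gave activity.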
# Lassa entry inh: qHTS for Inhibitors of binding or entry into cells for Lassa Virus; Potency, µM (series often up to 37.9 µM), without a hit: top-dose activity change, negative = inhibition, actives largely listed as inhibitors; AID 540256, 2011; Lassa virus pseudotype entry inhibition, cell reporter; control for the full effect not named in the record; hit rate 1.2% among 300,000; active means well fitted inhibition curve with a large enough effect; inconclusive means small, poorly fitted or top-dose-only effect, or effect the other way; inactive means flat fitted curve, though single readings scatter; tested in HEK293 cells; note: % is set by controls: 0 for no effect and ±100 for the full control effect; nearly all actives have a fitted effect of over 50% in size; luciferase read-out
# RE007 growth inh: qHTS Assay for Inhibitors of the HIV-1 protein Vpr. S. pombe RE007 Vpr strain, BacTiter-Glo ATP luminescence, 24 h; control for the full effect not named in the record. Potency, µM (doses to about 92.2 µM), for the others: at the top dose activity change, negative = less growth. hit rate 0.21% among 360,000; active = well fitted falling curve with a large enough effect; inconclusive = small, poorly fitted or top-dose-only effect; inactive = no such curve, though single readings can be large or run the other way;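 note: % is set by controls: 0 for no effect and ±100 for the full control effect; nearly all actives have a fitted effect of over 50% in size; the assay follows cell death caused by Vpr and the record does not say whether a fall means rescue or toxicity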
#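 Fission yeast strain RE007, carrying one chromosomally integrated HIV-1 vpr copy, was seeded at OD 0.01 in PMG+AL medium with 23 nL pinned compound. After 24 h at 30 °C and 99% humidity, viability was read by BacTiter-Glo luminescence.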
# Cruzain noTriton: qHTS Assay for Promiscuous and Specific Inhibitors of Cruzain (without detergent) | purified cruzain, Z-FR-AMC fluorescence, no detergent | Potency, µM, without a hit: max response, negative = inhibition, hits mostly inhibitors | hit rate 2.3% among 200,000;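 note: plate controls were enzyme without inhibitor for no effect and buffer without enzyme for full effect; nearly all actives have a fitted effect of over 40% in size; top concentration of the series not given in the record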
#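 Detergent-free condition (0.00005% Triton X-100) in acetate buffer pH 5.5 with DTT. 1.5 nM enzyme and compound were pre-mixed 15 min, then 2 uM Z-FR-AMC substrate added; reaction progress from fluorescence change between first and third reads (60 s).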
# An asterisk follows results filed as active; ? = inconclusive; · = no result given; & = joins results of further samples; [ ] = dose if it differs, or a comment. Unless noted, calls come from the whole dose curve; as a rule, active = well fitted curve in the direction sought with a large enough effect; inconclusive = small, poorly fitted or top-dose-only effect, or another doubt; inactive = no such curve, though single readings can be large; an effect the other way counts as inactive or inconclusive. Potency is the fitted concentration of half-maximal effect.
1. COc1ccc2c(c1)-c1nc(NC(=O)c3cc(OC)c(OC)c(OC)c3)sc1CC2
2. CCOc1ccc(CCNC(=O)CN2CCN(Cc3ccc(F)cc3)C2=O)cc1OCC
3. CC(C)C1Oc2ccccc2N(CC(=O)N(Cc2ccncc2)Cc2ccco2)C1=O (stereo not drawn)
4. O=C(NCCCN1CCOCC1)c1cc(S(=O)(=O)N2CCOCC2)ccc1Cl
5. CCCOC(=O)Nc1nc2ccccc2o1
6. CC1(C)CC(N=c2cc(-c3ccccc3)oc3ccc(Cl)cc23)CC(C)(C)N1
7. Cc1nn(C(C)C(=O)NC2CCCCCC2)c(=O)c2nn(-c3ccccc3)c(C)c12 (stereo not drawn)
8. N#Cc1nc(-c2cccs2)oc1NCCN1CCOCC1
compound no.	1	2	3	4	5	6	7	8
NS1 inh	·	-1%	-6%	·	-9%	·	0%	19%
Cruzain inh Det	-11%	5.2%	-5.7%	·	2.9%	·	·	-26%
StopGo reporter	-7%	-20%	-13%	-22%	43%[activator]	6%	-13%	13%
SARS PLpro yeast	·	-5%	21%	2%	-4%	-5%	-7%	-1%
Cruzain noTriton	?	?	9%	·	-11%	·	·	?
RE007 growth inh	·	2%	-10%	-26%	14%	-13%	7%	11%
Lassa entry inh	?	-1%	-2%	1%	-29%	?	-16%[46.1 µM]	6%
MARV entry inh	?	2%	-8%	6%	6%	?	-1%[46.1 µM]	-11%&-11%

# Reprinted from the part before: four compounds, then new ones.
5. CCCOC(=O)Nc1nc2ccccc2o1
6. CC1(C)CC(N=c2cc(-c3ccccc3)oc3ccc(Cl)cc23)CC(C)(C)N1
7. Cc1nn(C(C)C(=O)NC2CCCCCC2)c(=O)c2nn(-c3ccccc3)c(C)c12 (stereo not drawn)
8. N#Cc1nc(-c2cccs2)oc1NCCN1CCOCC1
9. Cc1ccccc1NC(=O)NCc1cccnc1
10. Cc1noc(C)c1COc1ccccc1C(=O)N(C)CC(=O)Nc1ccc(Cl)c(Cl)c1
11. COC(=O)CN(C#N)c1nc(NC(C)C)nc(OC)n1
12. CC(C)Oc1ccc(C(=O)Nc2c3c(nn2C(C)(C)C)CS(=O)(=O)C3)cc1
13. O=C1N=NC(=O)N1c1ccccc1
14. Nc1cc(C(=O)c2cccs2)ccc1Cl
15. Cc1nc(-c2ccc(S(=O)(=O)Nc3ccc(Cl)c(C(F)(F)F)c3)cc2)co1
16. COc1ccc(-c2cc(CNC(=O)CN(C)Cc3ccccc3)on2)cc1
compound no.	5	6	7	8	9	10	11	12	13	14	15	16
NS1 inh	-9%	·	0%	19%	·	·	6%	1%	13%	-3%	·	-5%
Cruzain inh Det	2.9%	·	·	-26%	·	·	22µM*	·	·	2.1%	-16%	-1.7%
StopGo reporter	43%[activator]	6%	-13%	13%	-9%	-14%	5%	5%	-16%	22%	41%[activator]	-18%
SARS PLpro yeast	-4%	-5%	-7%	-1%	·	-2%	10%	-4%	3%	4%	·	-2%
Cruzain noTriton	-11%	·	·	?	·	·	20µM*	·	·	?	7%	-5%
RE007 growth inh	14%	-13%	7%	11%	-9%	5%	2%	-9%	-1%	-24%	·	-8%
Lassa entry inh	-29%	?	-16%[46.1 µM]	6%	9%	?	-6%	3%[46.1 µM]	·	13%	2%[46.1 µM]	-11%
MARV entry inh	6%	?	-1%[46.1 µM]	-11%&-11%	9%[46.1 µM]	-2%	-27%	6%[46.1 µM]	·	26%	·	2%

17. CC(CCc1ccccc1)NC(=O)Cc1ccccc1 (stereo not drawn)
18. CCCCn1c(N)c(N(CCOC)C(=O)c2cnc(C)cn2)c(=O)[nH]c1=O
19. CCOc1ccc(CNC(=S)N/N=C/c2ccncc2)cc1
20. O=C(Nc1ccc(N2CCOCC2)cc1N1CCOCC1)c1ccc(Br)cc1
21. Cc1cc(C(=O)OCC(=O)NCc2ccccc2)c(C)o1
22. CCOC(=O)c1c(C)oc2ccc(OCC(=O)C(C)(C)C)cc12
23. CCC(C(=O)OCC(=O)Nc1ccc(SC(F)F)cc1)c1ccccc1 (stereo not drawn)
24. Cc1ccc(NC(=O)c2sc3ncn(CC(=O)N4CCN(c5ccccn5)CC4)c(=O)c3c2C)cc1Cl
compound no.	17	18	19	20	21	22	23	24
NS1 inh	2%	·	-1%	-3%	-2%	-2%	-27%	12%
Cruzain inh Det	-2.0%	·	-6.9%	·	·	-2.8%	-10%	·
StopGo reporter	-8%	-10%	37%[activator]	?	8%	4%	-20%	-16%
SARS PLpro yeast	11%	-6%	0%	2%	-1%	-5%	-71%	2%
Cruzain noTriton	-13%	·	-4%	·	·	-3%	-8%	·
RE007 growth inh	-1%	-5%	5%	18%	-13%	-8%	-16%	-4%
Lassa entry inh	?	-1%	·	·	?	-18%	·	·
MARV entry inh	30%	24%	0%	·	5%[46.1 µM]	13%&13%	·	·

25. CCOC(=O)CC1=C(C(=O)OCC)C(c2ccc(OC)c(OC)c2)C(C#N)=C(N)O1 (stereo not drawn)
26. COc1ccc(NC(=O)Nc2ccc(C)cc2OC(F)F)cc1OC
27. COc1ccccc1N1C(=O)NC(=O)C2(Cc3cc(C)ccc3N(C)C2)C1=O (stereo not drawn)
28. CC(Cc1ccccn1)NC(=O)c1ccc(OC2CCN(CCc3ccccc3)CC2)cc1 (stereo not drawn)
29. Cc1ccc(S(=O)(=O)Nc2ncnc3sc(C)c(C)c23)cc1
30. Cc1c(Cl)cccc1NC(=O)c1ccc(NC(=O)N2CCSc3ncccc32)cc1
31. COc1cccc(N2CCN(Cc3ccsc3)CC2)c1
32. O=C(NCCCN1CCOCC1)c1cc(-c2ccc(Cl)s2)nc2ccccc12
compound no.	25	26	27	28	29	30	31	32
NS1 inh	-1%	-4%	?	2%	·	·	7%	·
Cruzain inh Det	-2.7%	-9.3%	1.6%	·	·	-12%	5.8%	·
StopGo reporter	-17%	-15%	-13%	15%	-14%	?	6%	-5%
SARS PLpro yeast	1%	4%	-2%	21%	-2%	·	-1%	7%
Cruzain noTriton	11%	5%	-11%	·	·	3%	7%	·
RE007 growth inh	-14%	7%	12%	0%	-15%	·	-6%	-5%
Lassa entry inh	10%	-24%	9%	2%	-8%	-1%[46.1 µM]	0%	-7%[46.1 µM]
MARV entry inh	1%	-2%	-3%	?	-8%	·	0%	?

33. CN(C)c1ccc(CNC(=O)c2ccccc2NC(=O)c2nsc3ccccc23)cc1
34. CCC1CCc2c(sc(NC(=O)C3c4ccccc4Oc4ccccc43)c2C(N)=O)C1 (stereo not drawn)
35. CN(NC(=O)c1ccccc1F)c1ncccc1[N+](=O)[O-]
36. CC(C)(C)OC(=O)N1CCC(c2nnc(SCc3ccccc3Cl)o2)CC1
37. COc1cc(OC)cc(C(=O)N[C@H](C(=O)OCC(=O)Nc2ccc(C(N)=O)cc2)C(C)C)c1
38. CN(Cc1ccccc1)C(=O)COc1ccccc1
39. COc1ccc(NC(=O)C(=O)NCc2ccco2)c(OC)c1
40. Cc1nc(N/N=C\c2ccc3c(c2)OCO3)sc1C
compound no.	33	34	35	36	37	38	39	40
NS1 inh	·	11%	-2%	·	-9%	0%	·	-31%
Cruzain inh Det	4.4%	-0.5%	·	-6.5%	-13%	-0.4%	-4.0%	·
StopGo reporter	-5%	-6%	0%	?	-3%	34%[activator]	15%	23%
SARS PLpro yeast	·	-2%	0%	·	19%	-6%	·	7.1µM*
Cruzain noTriton	-11%	25µM*	·	?	-14%	-8%	-1%	·
RE007 growth inh	·	0%	-20%	·	2%	-24%	·	-8%
Lassa entry inh	-2%[46.1 µM]	-3%	·	?	0%	13%	22%[46.1 µM]	6%[46.1 µM]
MARV entry inh	·	-26%	·	16%[46.1 µM]	?	9%	·	21%[46.1 µM]

41. NC(N)=NC(N)=Nc1ccccc1
42. CCN1C(=O)/C(=C/c2cccs2)S/C1=N\S(=O)(=O)c1ccc(C)cc1
43. O=[N+]([O-])c1cccc(C=NNc2ccccc2)c1
44. Cn1c(=O)c2c(SC3CCCC3)nc(C3CC3)nc2n(C)c1=O
45. O=C(CSc1nnc2ccc(-c3cccnc3)nn12)Nc1cccc(F)c1
46. c1ccc2c(c1)nc(N1CCCCC1)c1ccccc12
47. Cc1ccc(CC(=O)N2CCC(c3nc4c(nnn4Cc4ccccc4)c(=O)[nH]3)CC2)cc1
48. COc1ccc(-n2nc3c(c2NC(=O)CBr)CSC3)cc1
49. O=C(N/N=C/c1ccccc1C(F)(F)F)c1ccc(O)cc1
50. COc1cc(CNc2ccc3c(c2)ncn3C(C)C)cc(OC)c1OC
51. CCOc1ccccc1N1CC(C(=O)N(C)Cc2cccnc2)CC1=O (stereo not drawn)
compound no.	41	42	43	44	45	46	47	48	49	50	51
NS1 inh	0%	9%	·	4%	·	-39%	-1%	16%	·	·	2%
Cruzain inh Det	1.5%&1.3%&-7.8%	-1.7%	·	-5.7%	·	·	-3.7%	·	·	-3.4%	·
StopGo reporter	-22%&-4%&-18%&-9%	-27%	42%[activator]	-5%	6%	-24%	-21%	-1%	43%[activator]	-9%	-12%
SARS PLpro yeast	-3%	9%	·	-5%	·	-2%	24%	-2%	0%	·	1%
Cruzain noTriton	6%&1%&0%	-26%	·	-7%	·	·	?	·	·	4%	·
RE007 growth inh	10%	4%	52%	4%	-2%	-3%	7%	20%	13%	·	-8%
Lassa entry inh	?	?	-3%	·	11%	-3%	·	11%[46.1 µM]	-1%	-3%[46.1 µM]	25%[46.1 µM]
MARV entry inh	21%&21%&21%&21%&21%&-6%&21%&21%&21%&21%	1%	?	·	0%	?	·	-3%[46.1 µM]	?	?	17%[46.1 µM]
